# B2AR ag – beta2AR agonists driving receptor internalization, primary screen, cell-based, FAP fluorogen, flow cytometry; actives 0.43% (n = 340,000); response, % (concentration not given with the values); Am2.2-beta2AR cells; reference of the scale not given here; AID 504454, 2011;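 active = response above a set limit, near 3 SD of response in nonfluorescent compounds, cut at about 42% in these data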;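 note: stock transfer was 100 nL into about 11 µL; a reference agonist was the positive control; negative values mostly stem from fluorescent compounds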
# Target sequence (P07550 whole entry, looked up): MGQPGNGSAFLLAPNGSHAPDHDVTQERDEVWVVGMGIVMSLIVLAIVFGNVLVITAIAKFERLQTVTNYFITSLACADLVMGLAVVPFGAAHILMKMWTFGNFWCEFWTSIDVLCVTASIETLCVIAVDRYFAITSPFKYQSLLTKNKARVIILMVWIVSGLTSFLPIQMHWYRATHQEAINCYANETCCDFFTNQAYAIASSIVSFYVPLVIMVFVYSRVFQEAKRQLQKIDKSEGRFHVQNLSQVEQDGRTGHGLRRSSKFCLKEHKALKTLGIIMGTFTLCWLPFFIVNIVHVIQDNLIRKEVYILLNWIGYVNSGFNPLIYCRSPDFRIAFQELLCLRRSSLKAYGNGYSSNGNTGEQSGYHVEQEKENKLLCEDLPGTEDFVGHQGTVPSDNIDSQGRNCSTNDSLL
# RanGTP-Imp inh – inhibitors of RanGTP-importin-beta interaction, primary screen, biochemical, FRET, CFP-Ran, YFP-importin-beta, homogeneous; Ran GTPase (GTP-bound) - importin-beta complex; cell-free CFP-Ran/YFP-importin-beta FRET ratio; inhibition, % (concentration not given with the values); actives 1.1% (n = 300,000);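 active = most replicates above 15%; inconclusive = exactly half above 15%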;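 note: 0% = DMSO wells and 100% = Ran loaded with GDP instead of GTP; wells of about 40 µL received 100 nL stock; the first replicate is given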
# Vif TR-FRET – inhibitors of Vif binding to APOBEC3G peptide, primary screen, biochemical, TR-FRET, GST-Vif 1-94, biotin-A3G peptide, dose response retest (AID 1117319) | TR-FRET GST-Vif / biotin-A3G peptide binding; higher % means a stronger effect; test concentration not given here; strong numbers were not always called active | one-dose inhibition, %; IC50 in µM for titrated hits | Virion infectivity factor (Human immunodeficiency virus type 1 group M subtype B (isolate … | actives 0.57% (n = 260,000);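 active = above the screen mean plus three standard deviations and confirmed in dose response; inconclusive = results disagree or hit not tested in dose response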;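 note: Vif residues 1-94 fused to GST binding biotinylated APOBEC3G peptide 110-148; 0% = full assay without inhibitor and 100% = GST in place of GST-Vif; retest series ran down from 100 µM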
# LANA-H2A inh – blockers of LANA interaction with H2A/H2B – biochemical, FP readout, HTS, primary screen | Protein LANA1 (Human herpesvirus 8 type P (isolate GK18)), Q9QR71 | cell-free LANA-H2A/H2B peptide, fluorescence polarization | inhibition, % (concentration not given with the values) | actives 0.6% (n = 320,000); in the data active = inhibition mostly above about 10%, no sharp cut-off; inactive = mostly below about 6.7%;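 note: stock transfer was 7.5 nL into about 10 µL; 0% = median of vehicle wells and 100% = median of positive control wells; one replicate is shown; the record names a cut of 25% in any replicate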
# Calb FLC – C. albicans growth inhibition with fluconazole, primary screen, CaCi-2 strain, Alamar Blue fluorescence. C. albicans CaCi-2 (fluconazole-resistant clinical isolate) + fluconazole, 48 h. growth inhibition, % (test concentration not listed). actives 0.57% (n = 300,000);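 active = most replicates above 75%; inconclusive = exactly half above 75%; inactive = most below 75%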;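 note: all wells also contain fluconazole at 8 µg/ml as a sub-toxic cotreatment; 0% = median of DMSO wells and 100% = median of geldanamycin control wells; wells of about 8 µL received 7.5 nL stock; the first replicate is given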
# ALR inh – inhibitors of human ALR sulfhydryl oxidase, primary screen, biochemical, H2O2 detection, HRP-luminol luminescence, single point; FAD-linked sulfhydryl oxidase ALR (Homo sapiens), P55789; purified ALR, DTT oxidation; inhibition, % (test concentration not listed); actives 3.8% (n = 290,000);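 active = mean and each replicate at 75% or more; inconclusive = only one of the two met; inactive = neither met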;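 note: stock transfer was 7.5 nL into about 7.5 µL; 0% = neutral wells and 100% = wells with inactivated enzyme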
# Target sequence (P55789 whole entry, looked up): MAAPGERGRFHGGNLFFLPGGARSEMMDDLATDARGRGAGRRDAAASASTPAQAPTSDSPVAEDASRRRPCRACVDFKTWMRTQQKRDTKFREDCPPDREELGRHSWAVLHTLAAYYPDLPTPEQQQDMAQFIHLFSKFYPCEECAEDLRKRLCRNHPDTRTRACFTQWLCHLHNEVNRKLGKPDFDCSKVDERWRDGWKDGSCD
# HNF4A DNA FP – change in binding of human HNF4A to DNA, primary screen, biochemical, fluorescence polarization, FITC-DNA; 1 h; activity change, % at 10 µM; actives 0.3% (n = 360,000); in the data active = activity change above about 30%, passing the limit was not always enough;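 note: controls were the assay level and a saturating level of protein; the project sought stronger binding though the title names inhibitors; some compounds called inactive have numbers as strong as hits; positive values seem to mean higher polarization but the record does not say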
# The depositor's hits bear a star; ? = inconclusive; / = not tested or not shown.
SMILES,B2AR ag,RanGTP-Imp inh,Vif TR-FRET,LANA-H2A inh,Calb FLC,ALR inh,HNF4A DNA FP
Nc1ccc2nc(-c3cccs3)[nH]c2c1,-8,-1.3,-8%,-8.4,-18,99*,1.2
CCC(=O)Nc1ccc2c(c1)Cc1cc([N+](=O)[O-])ccc1-2,-7,/,-4%,/,/,/,9.2
CCN1C(=O)[C@H]2[C@@H](c3ccc(Cl)cc3)N3C(=O)CN(CCOC)C(=O)[C@@]3(Cc3ccccc3)[C@H]2C1=O,-1,1.6,/,3.3,-7,-9,0.5
CCCC1CC(C#N)N(N(C)C)C1=C(C#N)C#N (configuration not stated),1,-2.9,-4%,-2.4,-2,-21,-1.8
COc1ccc2[nH]c(=O)c(CN(C(C)=O)c3ccc(C)cc3C)cc2c1,-3,-2.0,/,-3.4,-2,-5,-6.2
COC(=O)/C(=C1/Oc2cc3c(cc2S1)OCO3)C(F)(F)F,17,2.3,7%,-7.1,-2,2,1.0
CCOc1cccc(C(=O)Nc2nccs2)c1,-4,?,20%,0.9,-1,-10,-1.1
CCN(C(=O)CSc1nnc(Cc2ccccc2F)n1N)C1CCS(=O)(=O)C1 (configuration not stated),7,-1.0,6%,-3.5,3,/,0.0
C=CCNCCCCOc1ccccc1,11,4.9,/,1.7,3,-11,-0.8
Cc1cc(C)n(-c2ncnc3ccccc23)n1,1,1.6,-4%,-9.1,3,-3,1.9
Cc1ccc(C(c2nnnn2C2CCCC2)N2CCc3ccccc32)cc1 (configuration not stated),11,1.5,9%,1.1,8,3,8.8
O=C(Nc1ccccn1)c1ccc(-c2ccccc2)cc1,8,-3.7,-8%,-1.5,8,-19,-4.5
O=C(NC1CC1)C1=C[C@H](c2csc3ccccc23)C[C@H](OCc2ccc(CO)cc2)O1,-6,0.3,-1%,-2.5,10,2,-0.1
CCOC(=O)c1ccccc1NC(=O)Cn1c(-c2nonc2N)nc2ccccc21,18,3.1,?,1.2,-6,-5,7.7
C=CCC[C@@H](Cc1ccc(F)cc1)C(=O)OC[C@H]1CCCN1C(=O)[C@@H](CC=C)CC(=O)N[C@H](CO)Cc1ccccc1,4,/,/,1.3,/,0,1.5
COc1ccc(CN(C)C(=O)c2ccc(Oc3ccccc3)cc2)cc1F,-13,-0.5,/,1.6,3,-3,0.9
CCOC(=O)c1c(NC(=O)COC(=O)Cn2cnc3c2c(=O)n(C)c(=O)n3C)sc(C)c1CC,0,3.5,4%,4.8,15,42,-3.0
CCOc1ccc2ccccc2c1C1NC(=O)NC(C)=C1C(=O)OCCOC (configuration not stated),1,2.4,/,2.3,8,-10,1.9
Fc1ccc(NCc2nnc(SCc3nnc(-c4ccccc4)o3)n2Cc2ccccc2)cc1,-4,-1.9,-7%,2.7,-3,/,8.2
Cc1ccccc1N(CC(=O)NC1CCCC1)C(=O)C1(C)CC(=O)N=C2C=CC(Cl)=CN21 (configuration not stated),-2,4.7,/,1.7,-1,-1,-3.4

# The closing 4 compounds of the part above are carried over, then new ones follow.
SMILES,B2AR ag,RanGTP-Imp inh,Vif TR-FRET,LANA-H2A inh,Calb FLC,ALR inh,HNF4A DNA FP
CCOC(=O)c1c(NC(=O)COC(=O)Cn2cnc3c2c(=O)n(C)c(=O)n3C)sc(C)c1CC,0,3.5,4%,4.8,15,42,-3.0
CCOc1ccc2ccccc2c1C1NC(=O)NC(C)=C1C(=O)OCCOC (configuration not stated),1,2.4,/,2.3,8,-10,1.9
Fc1ccc(NCc2nnc(SCc3nnc(-c4ccccc4)o3)n2Cc2ccccc2)cc1,-4,-1.9,-7%,2.7,-3,/,8.2
Cc1ccccc1N(CC(=O)NC1CCCC1)C(=O)C1(C)CC(=O)N=C2C=CC(Cl)=CN21 (configuration not stated),-2,4.7,/,1.7,-1,-1,-3.4
Cc1ccc(N=N/C(=C\O)C(=O)c2ccncc2)cc1,38,7.3,6%,-1.5,4,58,1.7
COc1ccc(N2CCN(CCNC(=O)c3ccc4nc5ccccc5c(=O)n4c3)CC2)cc1,-6,-6.6,2%,/,1,/,-1.1
O=C(NCCc1ccc(Cl)cc1)Nc1ccc(F)cc1,2,-2.2,6%,0.5,-4,-2,-2.4
O=C(Nc1ncc2c(n1)CC(c1ccc(Cl)cc1)CC2=O)c1ccco1 (configuration not stated),-10,1.4,/,2.8,11,-3,2.0
Brc1ccccc1OCCCN1CCOCC1,9,-7.5,5%,-1.2,24,-16,-0.7
Fc1ccccc1NC(=S)N(CCN1CCCCC1)Cc1ccco1,1,-1.7,27%,-3.1,10,-6,2.7
Cc1ccc(S(=O)(=O)Nc2ccc3c(c2)nc2n3CCN(Cc3ccccc3)C2)cc1,1,3.3,5%,-3.0,-14,-4,5.5
Cc1cc(N2CCOCC2)ccc1/C=C1/SC(=O)NC1=O,5,-6.7,19%,-3.9,5,35,1.4
COc1ccc(-c2cn3c(n2)CCC3)cc1,0,-1.1,-8%,-1.0,0,71,4.3
C=CCCC(=O)N1CCC(n2nccc2NC(=O)c2ccc(OC)cc2)CC1,2,-0.8,/,-1.0,-14,-3,-0.6
O=C(CSc1ccc2nnc(-c3ccncc3)n2n1)Nc1ccccc1F,3,8.9,-18%,3.4,-1,-9,-12
Cc1cccc(C)c1NC(=S)N(CCc1ccncc1)C(C)C,5,3.8,?,-1.1,-1,-7,3.9
O=C(Nc1ccc(S(=O)(=O)NCc2ccccc2)cc1)c1ccccc1[N+](=O)[O-],-2,-3.5,/,-4.0,-1,/,1.4
Cc1ccc(-c2nnc(N3CC(C)OC(C)C3)c3ccccc23)cc1 (configuration not stated),18,5.5,-8%,0.6,19,-18,-0.7
COc1ccc(CCNC(=O)COC(=O)c2ccc(F)c(S(=O)(=O)N3CCOCC3)c2)cc1,-6,/,-3%,1.1,/,-1,7.2
COc1ccc(C2=NN(C(=O)CSc3nccn3C)C(c3ccco3)C2)cc1 (configuration not stated),9,/,/,5.4,/,-9,0.1
CCCCc1ccc(NC(=S)NCCc2ccc(S(N)(=O)=O)cc2)cc1,-17,?,-2%,-6.0,23,/,-1.6
O=C(NC1CCCCCC1)C1CCN(C(=O)c2ccc(Cl)cc2)CC1,-4,/,-9%,4.1,/,0,1.4
O=C(COc1ccc2c(-c3ccccc3)cc(=O)oc2c1)N[C@H](Cc1c[nH]c2ccccc12)C(=O)O,-1,-2.7,/,5.4,-4,-1,6.2
CCOC(=O)c1nc2nc(C)cc(=O)n2[nH]1,2,-1.1,18%,-0.3,-1,-4,0.4

# ALR inh, entries above that show a hit
SMILES | B2AR ag | RanGTP-Imp inh | Vif TR-FRET | LANA-H2A inh | ALR inh | HNF4A DNA FP
Nc1ccc2nc(-c3cccs3)[nH]c2c1 | -8 | -1.3 | -8% | -8.4 | 99* | 1.2

# Remaining list, next part:
SMILES,B2AR ag,RanGTP-Imp inh,Vif TR-FRET,LANA-H2A inh,Calb FLC,ALR inh,HNF4A DNA FP
Fc1ccc(C2CC(c3ccco3)n3ncnc3N2)cc1 (configuration not stated),4,?,2%,4.4,5,-3,-2.2
Cn1c(=O)oc2cc(S(=O)(=O)Nc3ccc(Cl)cc3)ccc21,-5,1.0,5%,0.7,1,-3,3.0
COc1cc(NC(=O)CN2CCN(S(=O)(=O)/C=C/c3ccccc3)CC2)cc(OC)c1OC,4,/,-15%,-8.8,/,-10,2.2
CCCn1nc(C(=O)OCC(=O)NC(C)c2ccccc2)c2ccccc2c1=O (configuration not stated),-2,3.5,-5%,3.2,-13,16,-0.2
Cc1csc(Sc2ccc([N+](=O)[O-])cc2C(=O)OCC(=O)NC2CCCC(C)C2C)n1 (configuration not stated),2,7.0,?,1.8,-14,-3,-0.4
CC(C)(C)c1cc(NC(=O)Nc2ccccc2)no1,-2,-7.2,-4%,2.3,-20,/,0.6
COc1ccccc1C(=O)Nc1ccc(S(=O)(=O)N2CCOCC2)cc1,0,-1.0,20%,-5.9,-6,/,1.4
COc1ccc(C2=NN(C(=O)COC(=O)c3ccc(NC(=O)CC#N)cc3)C(c3ccco3)C2)cc1 (configuration not stated),17,/,2%,8.4,/,-6,125
O=C(CN1CCN(Cc2ccc(F)cc2Cl)CC1)NCc1ccccc1,5,0.4,/,0.8,-2,-15,2.4
CC1CCCN(CC(=O)NNC(=O)COc2ccc(Br)cc2)C1 (configuration not stated),13,/,/,-0.7,/,-4,-0.4
COC(=O)c1c(C)[nH]c(C)c1-c1ccc([N+](=O)[O-])cc1,5,-2.8,7%,-1.1,28,/,-0.4
O=C(O)c1cccc(S(=O)(=O)Nc2ccc(Cc3ccncc3)cc2)c1,-18,/,2%,2.0,/,0,-2.2
CCC(=O)C1CCCN(C(=O)CCc2nnc(-c3ccc(C(C)=O)s3)o2)C1 (configuration not stated),-3,1.4,/,0.7,-3,17,-0.9
COc1ccc(N2CCN(c3nc4c(C)cccn4c(=O)c3C=C(C#N)C#N)CC2)cc1,7,2.8,0%,/,-3,/,-1.5
CC1(C)C(c2cccs2)=NC(c2ccccc2)N1O (configuration not stated),2,-0.4,-1%,-9.6,0,3,2.5

# Gathered by group, the entries above with a nitro group on carbon (4)
SMILES,B2AR ag,RanGTP-Imp inh,Vif TR-FRET,LANA-H2A inh,Calb FLC,ALR inh,HNF4A DNA FP
CCC(=O)Nc1ccc2c(c1)Cc1cc([N+](=O)[O-])ccc1-2,-7,/,-4%,/,/,/,9.2
O=C(Nc1ccc(S(=O)(=O)NCc2ccccc2)cc1)c1ccccc1[N+](=O)[O-],-2,-3.5,/,-4.0,-1,/,1.4
Cc1csc(Sc2ccc([N+](=O)[O-])cc2C(=O)OCC(=O)NC2CCCC(C)C2C)n1 (configuration not stated),2,7.0,?,1.8,-14,-3,-0.4
COC(=O)c1c(C)[nH]c(C)c1-c1ccc([N+](=O)[O-])cc1,5,-2.8,7%,-1.1,28,/,-0.4
